Screens: PubChem BioAssay, Fisher Drug Discovery Resource Center
NPYLR7 ag = activates Aedes aegypti NPYLR7 receptor; HEK293T NPYLR7/Galpha15, GCaMP6s calcium fluorescence; activation, % at 10 µM; 0.15% of 270,000 active; AID 1259423; in the data active = activation above about 40%;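 note: 0% = vehicle and 100% = reference agonist at the receptor; some compounds past the cut are filed as inactive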
NPYLR7 ag max-min = recorded beside NPYLR7 ag, whose call it bears; activation, %; measured here: Max-Min RFU normalised activation; some inactives read as strong as hits;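 span of the calcium signal over five minutes; 0% = vehicle and 100% = native peptide agonist; compound fluorescence can raise it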
Numbers without * were called inactive; & = joins results of further samples. A portion of the library (hit frequency here may not be typical).

SMILES,NPYLR7 ag,NPYLR7 ag max-min
COc1ccc(-c2cnn3c(C)c(C(=O)NCc4ccc(F)c(Cl)c4)cnc23)cc1,-9,-13
CN1C(=O)N(C)C2SC(N)=NNC21 (stereo not drawn),1,53
CNc1nc2cnc(Nc3cccc(C)c3)cc2n1-c1cc(OC)c(OC)c(OC)c1,14,5
CC(C)NC(=O)CN1C(=O)NC2(CCCCC2)C1=O,-5,-4
Cc1ccc(NC(=O)COc2ccc3cn[nH]c3c2)c(C)c1,8,3
CC1(c2ccc(C(=O)NCCc3csc(N4CCCC4)n3)cc2)NC(=O)NC1=O (stereo not drawn),25,27
O=C1CSC(c2cccc(C(F)(F)F)c2)N1CCO (stereo not drawn),4,1
CC(C)CC(C(=O)NCCc1cccc(F)c1)N1C(=O)c2ccccc2C1=O (stereo not drawn),11,6
O=C(Nc1ccccc1Nc1ccccc1)C1CCCCC1C(=O)N1CCc2c([nH]c3ccccc23)C1 (stereo not drawn),-9,-14
CSc1ccc(C(C)NC(=O)CC(O)(c2ccco2)C(F)(F)F)cc1 (stereo not drawn),5,5
Cc1cc(Br)ccc1OCCn1cnc2ccccc2c1=O,-5,2
CC1(C)Cc2nc3[nH]n(-c4ccccc4)c(=O)c3c(-c3nc4ccccc4[nH]3)c2C(O)C1 (stereo not drawn),-5,-10
Cc1nc2cc(C(=O)N(Cc3ccco3)C3CCCC3)ccc2n1C,12,12
Cc1cc(C(=O)N2CCN(CC(OCc3ccc(C(F)(F)F)cc3)c3ccc(Cl)cc3)CC2)n(C)n1 (stereo not drawn),4,3
CCOC(=O)C1(CC2CC2)CCN(C(=O)c2ccc3nc(C)[nH]c3c2)CC1,18,5
CC(C)(C)c1cc(S(N)(=O)=O)c2cc(C(C)(C)C)cc(S(N)(=O)=O)c2c1,1,-2
CN(Cc1ccc2nonc2c1)Cc1cc(-c2ccncc2)no1,0,-11
CC(C)c1ccc(CCNC(=O)c2cc(C(C)O)c[nH]2)cc1 (stereo not drawn),3,3
COc1cccc(OC)c1C(=O)N(Cc1ccc(OS(=O)(=O)c2ccc(F)cc2)cc1)Cc1ccco1,6,22
Cc1csc2ncc(C(=O)N(Cc3ccccc3)Cc3ccccc3)c(=O)n12,2,-1
CCOc1cc(/C=C2/SC(=S)N(CCCC(=O)O)C2=O)ccc1O,46,40
CCc1cc(C2CCCN2C(=O)NC(C)C)on1 (stereo not drawn),3,-1
CCOc1nn(CC)cc1C(=O)Nc1ccc(CC)cc1,-2,11
Cc1noc(N)c1C(=O)OC(C)c1cccc2ccccc12 (stereo not drawn),-1,-2
O=c1c(-c2ccc(O)cc2)coc2cc(O)cc(O)c12,0&-2,-26&-3
Cn1cc(C#N)c(=O)n(CC2CCCCC2)c1=O,4,4
C=CCN(CC=C)C(=O)c1ccc(-n2nc(C(=O)OCC)cc2-c2cccc(OC)c2)cc1,-6,-15
COCCN(Cc1csc(COc2c(OC)cccc2OC)n1)C(=O)c1cccc(Br)c1,12,9
O=c1cc(-c2ccccc2)oc2cc(OCc3ccccc3)cc(O)c12,-6,-12
CCn1c(C)cc(O)c(C(c2ccc(F)cc2)N2CCN(C)CC2)c1=O (stereo not drawn),12,4
CC(O)(P(=O)(O)O)P(=O)(O)O,-2,-8
O=C(CCCc1cccs1)NCc1ccc(N2CCCC2=O)cc1,3,6
O=C(CCc1ccccc1)Nc1ccnn1C1CCN(Cc2cccc3nonc23)CC1,0,-1
Cc1n[nH]c(C)c1SCC(=O)O,8,12
O=S1(=O)NC(=NCc2ccccc2)C(c2cccc(Cl)c2)N1 (stereo not drawn),-2&-14,-2&-14
CCCCOc1ccc(C(=O)Nn2cnc3c(cnn3-c3ccccc3)c2=O)cc1,5,3
CC(NCC1CCCn2ccnc21)c1cc(F)ccc1F (stereo not drawn),6,3
Cc1ccsc1CN(Cc1ccccn1)CC1CCOC1 (stereo not drawn),-12,-11
Cc1cc(C)nc(SCc2cc(=O)c(OC(=O)COc3ccc(F)cc3)co2)n1,-16,-14
Cc1ccc(C(=O)Nc2ccccc2-c2c(-c3cccc(C)c3)[nH]n(-c3ccccc3)c2=O)cc1,-10,-10
CCn1cc(C(=O)N2CCN(C(=O)c3ccc(C)cc3)CC2)c2nn(-c3ccccc3)c(=O)c-2c1,4,2
COc1ccc(S(=O)(=O)Nc2ccc(OC(F)(F)F)cc2)cc1[N+](=O)[O-],-2,-3
COc1ccc(-c2csc(N3C(=O)c4ccc(OC)c(OC)c4C3=O)n2)cc1,8,11
COc1cc(OC)cc(C2=NC(=Cc3ccc(OC(F)F)c(OC)c3)C(=O)O2)c1,3,1
COc1cccc(OC)c1C(=O)N1C(C(=O)NCc2cccc(C(F)(F)F)c2)COC12CCCCC2 (stereo not drawn),0,12
COc1ccc(-n2nnnc2CN2CCN(C(C)=O)CC2)cc1,0,-1
Cc1cc(C)n(-c2ccc(NC3CCOC3c3ccccc3)nn2)n1 (stereo not drawn),3,1
COc1ccc(OCC(O)CN(Cc2c(-c3ccccc3)noc2N2CCCCC2)CC2CC2)cc1 (stereo not drawn),9,14
Cc1ccc(NC(=O)CN2CCN(C(=O)c3sc4ncccc4c3-n3cccc3)CC2)cc1,7,2
CCOC(=O)c1ccc(N=C2SC(C(=O)Nc3ccc(C(=O)OCC)cc3)CC(=O)N2C)cc1 (stereo not drawn),-1,-1
O=C(C1COc2ccccc2O1)N1CCN(C2c3ccccc3CCc3ccccc32)CC1 (stereo not drawn),17,23
Cc1ccc(S(=O)(=O)N2CCN(C(C)C(=O)Nc3ccc(F)c(F)c3F)CC2)cc1 (stereo not drawn),5,4
O=C(c1nc2sccn2c1CN1CCc2sccc2C1)N1CCCCCCC1,6,12
COc1ccc(CNC(=O)Cn2cccc(-c3nc(-c4ccc(Cl)cc4)no3)c2=O)cc1,1,-2
COC(=O)C(C(=O)NCC1CCCO1)C1CCCC1 (stereo not drawn),4,1
O=C(Cc1ccc(OC(F)F)cc1)NCc1nc2ccccc2s1,2,3
C[n+]1ccc(C=CC(=O)c2ccc3c4c(cccc24)CC3)cc1,1,0
Cc1ccc(NC2SC(=O)N(CCN3C(=O)c4ccccc4C3=O)C2=O)c(C)c1 (stereo not drawn),5,6
COc1ccc2c(c1)C1(SCCN1C(C)=O)C(=O)N2Cc1ccc(C(F)(F)F)cc1 (stereo not drawn),8,7
CC(C)c1cc(C(=O)N2CCCC(C(=O)Nc3ccccc3Oc3cccnc3)C2)no1 (stereo not drawn),9,-1

Part of the list above in a different format.
O=C(CCCc1cccs1)NCc1ccc(N2CCCC2=O)cc1
- NPYLR7 ag = 3
- NPYLR7 ag max-min = 6

O=C(CCc1ccccc1)Nc1ccnn1C1CCN(Cc2cccc3nonc23)CC1
- NPYLR7 ag = 0
- NPYLR7 ag max-min = -1

Cc1n[nH]c(C)c1SCC(=O)O
- NPYLR7 ag = 8
- NPYLR7 ag max-min = 12

(further entries)
SMILES,NPYLR7 ag,NPYLR7 ag max-min
C1CCC(N=C(NC23CC4CC(CC(C4)C2)C3)N2CCOCC2)CC1,6,-3
COC(=O)c1ccccc1COc1cccn2c(N(C)C(=O)CCC3CCCC3)c(C)nc12,-4,-10
CCN1C(=S)NC(c2ccc(NC(=O)c3ccc(-c4ccccc4)cc3)cc2)C(C(=O)OCC(C)C)=C1C (stereo not drawn),17,19
Cn1cnc2cc(C(=O)NCc3cccnc3Oc3ccccc3F)cnc21,3,3
CCOC(=O)C1=C(COC(=O)CCN2C(=O)C3CCCCC3C2=O)NC(=O)NC1C (stereo not drawn),-5,-12
COC(=O)[C@@H](NC1CCN(c2ccc(NC(=O)Cc3cccc(F)c3)cc2)CC1)C(C)C,6,6
COc1cc(OC)cc(C2SCCN2C(=O)c2ccccc2Cl)c1 (stereo not drawn),-9,0
COCCN(Cc1ccc(OC)cc1)c1c(C)nc2ccc(C(=O)NCCc3ccccn3)cn12,-5,-11
Cn1c(C(=O)NCCCN2CCCC2C(N)=O)cc(Cl)c1Cl (stereo not drawn),6,3
FC(F)(F)c1cccc(-c2ccnc3n[nH]c(-c4ccccc4)c23)c1,4,2
CS(=O)(=O)c1cccc(NC(=O)C=Cc2ccc3c(c2)OCCO3)c1,-2,-3
CC1C(=O)N(c2ccc(Cl)cc2Cl)CCN1C(=O)C1CC1 (stereo not drawn),2,7
Cc1c(C(=O)c2nn3c(nc(=O)c4ccccc43)s2)c(=O)n(-c2ccccc2)n1C,6,2
CSc1ccc(NC(=O)N(CCc2ccccc2)CC(=O)Nc2cc(C(C)(C)C)nn2-c2ccccc2Cl)cc1,22,26
O=S1(=O)CC2N=C(Nc3cc(F)ccc3F)SC2C1 (stereo not drawn),0,-1
CCn1cnc(NC(=O)NCc2ccc(Cl)cc2Cl)n1,6,-8
Cc1ccc(NCCC(=O)N2CCCC2c2ccccc2)cc1 (stereo not drawn),-1,0
COCCN1CCN(C(=O)c2ccc(-c3n[nH]c4c3CCc3cc(OC)ccc3-4)cc2)CC1,4,-2
Cc1ccccc1CSc1ncccc1C(=O)N1CCC(Cc2ccccc2)CC1,4,3
CN(C(=O)CSC1=Nc2ccccc2C1)C1CC1,24,19
COc1ccccc1-c1c(C)[nH]n2c(=O)c(Cc3ccccc3)c(C)nc12,-5,-4
CCCOc1nn(CCC)cc1C(=O)Nc1nnc(SCC)s1,7,-4
COc1ccc(-c2noc(-c3ccc(OC)c(OC)c3)n2)cc1OC,6,1
C=CC(C)(O)CN(CCOC)Cc1c(CC)nn(-c2ccccc2)c1Oc1cccc(F)c1 (stereo not drawn),-3,-3
COc1ccc(Cn2nc(C(=O)NC3CCCC3)c3c2CCN(C(=O)c2cscn2)C3)cc1,-3,-9
Nc1cc(Cl)ccn1,-5,2
Cc1[nH]n(-c2nc(-c3ccc(Br)cc3)cs2)c(=O)c1N=Nc1cccc([N+](=O)[O-])c1C,-10,-14
COc1cc(C(=O)NCCN2C(=O)SC(=Cc3ccc(F)cc3)C2=O)cc(OC)c1OC,4,-1
CCOc1ccccc1NC(=O)N(CC(=O)N(Cc1ccccc1)Cc1cccn1Cc1ccc(F)cc1)CC(C)C,20,28
CC1C(=O)N(c2cccc(Br)c2)CCN1C(=O)C1CCC1 (stereo not drawn),1,13
Cc1cc2n(n1)CCCN(Cc1nc(-c3sccc3C)oc1C)C2,-5,-9
Cc1cc(CN2C(=O)c3ccccc3C2=O)cc(C(=O)N2CCOCC2)c1O,-6,-6

Gathered by group, the entries above containing an NH in an aromatic ring
SMILES,NPYLR7 ag,NPYLR7 ag max-min
Cc1ccc(NC(=O)COc2ccc3cn[nH]c3c2)c(C)c1,8,3
O=C(Nc1ccccc1Nc1ccccc1)C1CCCCC1C(=O)N1CCc2c([nH]c3ccccc23)C1 (stereo not drawn),-9,-14
CC1(C)Cc2nc3[nH]n(-c4ccccc4)c(=O)c3c(-c3nc4ccccc4[nH]3)c2C(O)C1 (stereo not drawn),-5,-10
CCOC(=O)C1(CC2CC2)CCN(C(=O)c2ccc3nc(C)[nH]c3c2)CC1,18,5
CC(C)c1ccc(CCNC(=O)c2cc(C(C)O)c[nH]2)cc1 (stereo not drawn),3,3
Cc1n[nH]c(C)c1SCC(=O)O,8,12
Cc1ccc(C(=O)Nc2ccccc2-c2c(-c3cccc(C)c3)[nH]n(-c3ccccc3)c2=O)cc1,-10,-10
FC(F)(F)c1cccc(-c2ccnc3n[nH]c(-c4ccccc4)c23)c1,4,2
COCCN1CCN(C(=O)c2ccc(-c3n[nH]c4c3CCc3cc(OC)ccc3-4)cc2)CC1,4,-2
COc1ccccc1-c1c(C)[nH]n2c(=O)c(Cc3ccccc3)c(C)nc12,-5,-4
Cc1[nH]n(-c2nc(-c3ccc(Br)cc3)cs2)c(=O)c1N=Nc1cccc([N+](=O)[O-])c1C,-10,-14
